Screening results from PubChem BioAssay.
E coli growth – inhibitors of Escherichia coli growth. OD600 absorbance (concentration not given with the values). OD600, 23 h; active compounds read low. actives 0.21% (n = 330,000);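 active = OD600 absorbance below the run mean of sample wells minus 3.6 SD, in any replicate, cut at about 0.56 in these data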;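 note: stock transfer was 300 nL into about 60 µL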
Beta apoptosis – beta cell apoptosis inhibition; protection from apoptosis, % (concentration not given with the values); AID 435005; INS-1E cytokine-induced death, ATP luminescence, 48 h; percent of positive-control rescue, neutral wells zero; actives 0.8% (n = 300,000);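 active = all replicates at 75% or more, or half of them and the mean; inconclusive = half reach 75% but not the mean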;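 note: 0% = cytokine-treated negative control wells and 100% = positive control rescue; higher means more ATP so stronger rescue from cytokine killing; wells of about 40 µL received 100 nL stock; the first replicate is given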
UCH37 DUB inh – blocks the human deubiquitinase UCH37; AID 588478; inhibition, % (concentration not given with the values); purified proteasome/UCH37, Ub-AMC cleavage fluorescence; actives 0.33% (n = 330,000); Q9Y5K5;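 active = mean of two replicates above 20%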;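 note: 0% = compound-free wells with enzyme and 100% = wells lacking proteasome; stock transfer was 100 nL into about 20 µL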
Target sequence (Q9Y5K5 whole entry, looked up): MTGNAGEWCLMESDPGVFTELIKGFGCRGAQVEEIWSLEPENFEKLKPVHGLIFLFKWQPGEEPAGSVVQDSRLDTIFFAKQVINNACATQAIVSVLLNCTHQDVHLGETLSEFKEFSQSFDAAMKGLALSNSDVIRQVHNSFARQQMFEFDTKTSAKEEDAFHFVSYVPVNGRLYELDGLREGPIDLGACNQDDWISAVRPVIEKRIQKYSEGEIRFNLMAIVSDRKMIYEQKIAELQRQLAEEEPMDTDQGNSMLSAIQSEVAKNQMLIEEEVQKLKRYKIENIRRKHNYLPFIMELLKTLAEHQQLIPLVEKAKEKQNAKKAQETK
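assay system = human UCH37 enzyme supplied as purified proteasome complex | amount = proteasome at 0.15 nM in the dispensed enzyme solution | schedule = 30 min compound-proteasome preincubation then 25 min substrate reaction, room temperature | measured by = fluorescence, ex 355 nm, em 460 nm | benchmarks = no-proteasome wells (full inhibition) and compound-free wells (no inhibition)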
A1 inh – inhibitors of the anti-apoptotic protein A1, read as caspase activation. caspase activation, % (concentration not given with the values). AID 2462. MEF A1-2A-BIM cells, Caspase-Glo 3/7 luminescence, 3 h; percent of clofoctol response, vehicle zero. actives 0.066% (n = 330,000);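 active = over half of replicate activation scores above 10%, or exactly half above 10 with the replicate mean above 10; inconclusive = replicate mean below 10 yet half the replicates above 10; inactive = over half of replicates below 10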;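 note: wells of about 30 µL received 50 nL stock; many hits fall short of the cut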
AF4-AF9 inh – MLL-AF4/AF9 protein interaction inhibition; P42568; AlphaScreen, biotin-AF4 peptide binding to FLAG-AF9; inhibition, % at 10 µM; actives 0.47% (n = 350,000);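 active = every replicate reaching a set inhibition limit, whatever the replicate mean, cut at about 25% in these data; inconclusive = mean inhibition reaches that limit but some replicates miss it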;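 note: 0% = plate neutral control median and 100% = total signal loss; the record names both 10 and 1 µM as test concentration; the first replicate is given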
Target sequence (P42568 whole entry, looked up): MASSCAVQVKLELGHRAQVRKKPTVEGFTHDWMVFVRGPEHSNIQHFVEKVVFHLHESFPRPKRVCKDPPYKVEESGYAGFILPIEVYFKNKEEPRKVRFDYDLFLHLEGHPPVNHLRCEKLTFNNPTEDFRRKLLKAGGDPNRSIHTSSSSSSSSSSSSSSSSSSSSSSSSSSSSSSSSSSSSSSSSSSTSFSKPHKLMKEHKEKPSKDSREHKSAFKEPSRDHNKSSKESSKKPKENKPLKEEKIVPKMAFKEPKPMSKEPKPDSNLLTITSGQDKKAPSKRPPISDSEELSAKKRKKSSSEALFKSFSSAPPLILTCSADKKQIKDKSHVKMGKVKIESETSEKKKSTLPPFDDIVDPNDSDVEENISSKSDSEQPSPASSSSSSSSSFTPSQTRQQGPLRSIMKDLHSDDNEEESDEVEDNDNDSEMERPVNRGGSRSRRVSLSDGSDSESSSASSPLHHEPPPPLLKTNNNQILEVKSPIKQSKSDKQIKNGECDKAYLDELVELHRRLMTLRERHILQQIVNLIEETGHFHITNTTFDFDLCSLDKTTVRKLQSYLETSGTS
rRNA inh HTS – inhibits bacterial ribosomal RNA function over humanized ribosomes | E. coli WT GFP vs humanized-ribosome RFP mutants, fluorescence, 24 h; active compounds read low; DMSO median 0, no signal -100 | actives 1.6% (n = 350,000) | GFP signal change (wild-type ribosome), % (concentration not given with the values);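 active = significant combined selectivity score with lowered wild-type GFP, culture density cut under 30%, mutant RFP and density less affected; inactive = any of these conditions unmet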; note: one replicate is shown; some compounds called inactive have numbers as strong as hits
T cruzi inh – T. cruzi replication inhibition; inhibition, % (test concentration not listed); T. cruzi beta-gal in NIH3T3, luminescence, 90 h; actives 1.4% (n = 300,000);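 active = mean inhibition across valid replicates above about 55%, limit read from the data; inconclusive = mean below that limit but half or more replicates reach it; inactive = mean below it, under half of replicates reach it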;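 note: signal also drops with host cell toxicity which is not excluded here; 0% = plate median of DMSO wells and 100% = zero luminescence signal; higher percent means less beta-gal luminescence so fewer parasites; stock transfer was 50 nL into about 50 µL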
FGF22 binding – FGF22 (human) thermal shift binding. Q9HCT0. AID 651658. calls only at 9.99 µM. recombinant FGF22 thermal shift, SYPRO orange fluorescence; percent of sucrose octasulfate shift, DMSO zero. actives 1.5% (n = 340,000);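 active = melting point raised past a set limit in the mean and every replicate; inconclusive = no clear call; three in four hits are not shown here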
Target sequence (Q9HCT0 whole entry, looked up): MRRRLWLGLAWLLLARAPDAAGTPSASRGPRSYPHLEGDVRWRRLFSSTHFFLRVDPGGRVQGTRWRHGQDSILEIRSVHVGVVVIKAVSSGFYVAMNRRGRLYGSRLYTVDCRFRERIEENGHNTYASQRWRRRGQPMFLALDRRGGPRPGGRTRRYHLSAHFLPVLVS
rRNA inh HTS OD600 – also measured in rRNA inh HTS; calls as there; OD600 change, %; measured here: OD600 growth;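 optical density of the mix in the first replicate; 0 = DMSO median and -100 = no signal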
rRNA inh HTS RFP – also measured in rRNA inh HTS; calls as there; RFP signal change, %; measured here: RFP humanized mutant strains;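 first replicate; 0 = DMSO median and -100 = no signal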
* = called active by the depositor; i = inactive; ? = inconclusive; . = not tested or not shown.

SMILES	E coli growth	Beta apoptosis	UCH37 DUB inh	A1 inh	AF4-AF9 inh	rRNA inh HTS	rRNA inh HTS OD600	rRNA inh HTS RFP	T cruzi inh	FGF22 binding
CCCCOC(=O)Nc1ccc(S(=O)(=O)Nc2onc(C)c2C)cc1	0.67	2	3.0	-0.5	-0.5	-5	-7	0.0	-5	i
CC(C(=O)OCC(=O)N1CCN(c2ccccc2)CC1)N1C(=O)c2ccccc2C1=O (centres undefined)	0.64	-1	3.8	0.8	0.3	.	.	.	.	i
C[C@H](NC(=O)[C@@H]1CSC2c3ccccc3C(=O)N21)C(=O)NCc1c(F)cccc1Cl (some centres undefined)	0.7	8	4.5	-1.0	1.4	11	7	3.8	6	i
CCOC(=O)c1c(C)n(CCOc2ccccc2)c2ccc(O)cc12	0.74	-3	3.9	1.0	-0.6	2	-5	-1.9	-8	i
O=C(CSc1nnc(-c2ccncc2)n1-c1ccccc1)Nc1ccc(C(=O)O)cc1	0.71	-4	-2.1	0.8	-2.6	8	11	1.7	-10	i
Cc1nc2ccc(Cl)cc2nc1C	0.64	-2	4.0	-0.1	-0.8	.	.	.	1	i
CN(CC(=O)Nc1c(Cl)cccc1Cl)C(=O)Cc1ccc(S(=O)(=O)N2CCOCC2)s1	0.71	-5	0.4	-0.8	-3.0	3	-4	-4.2	-5	i
COc1ccc([C@H](OC)[C@@]2(Cc3ccc(O)cc3)N=C(N)N(C)C2=O)cc1	.	2	5.9	0.2	3.9	16	16	-2.9	.	i
O=C(COC(=O)CCNS(=O)(=O)c1cccs1)Nc1ccccc1	0.69	0	7.7	0.6	-3.1	.	.	.	.	i
Cn1c(=O)c2sccc2n2c(CCCC(=O)Nc3ccccc3)nnc12	0.72	-4	0.9	-0.5	-4.7	15	10	0.9	-7	i
N=c1c2c(-c3ccccc3)c(-c3ccccc3)n(Cc3ccco3)c2ncn1CCCn1ccnc1	0.65	6	2.5	-0.1	22	-49	-75	-20	64*	i
COc1ccc(CN(C)C(=O)CCN(c2ccccc2)S(=O)(=O)c2ccc(C)cc2)c(OC)c1	0.7	1	1.9	1.0	12	-7	-17	11	35	i
O=C(O)c1ccccc1C(=O)Nc1ccc(S(=O)(=O)Nc2ccc(F)cc2)cc1	0.66	-12	4.2	-0.6	0.1	6	8	-1.5	-4	.
COc1ccc(Cl)cc1N/C(N)=N/c1nc(CSc2ccc(C)cc2)cc(=O)[nH]1	0.7	12	0.4	0.5	.	.	.	.	26	.
Cc1ccc(-c2ccc(SCC(=O)N3CCCc4ccccc43)nn2)cc1	0.71	-6	-0.8	-0.2	.	.	.	.	-2	.
O=C(COC(=O)c1ccccn1)NC12CC3CC(CC(C3)C1)C2	0.71	.	0.1	-0.4	.	.	.	.	4	.
CN(C)S(=O)(=O)c1cccc(NS(=O)(=O)c2ccc(Cl)s2)c1	0.7	.	-0.2	1.3	0.4	-23	-28	-11	-2	i
O=C(Cn1c(-c2ccccn2)nc2ccccc21)N/N=C/c1ccccn1	.	-4	.	-0.2	-9.6	16	8	0.9	11	i
COCc1cc(NCc2ccc(Cl)cc2)nc(C)n1	0.63	-7	1.4	0.3	1.0	7	4	4.5	19	i
O=C1CCCc2nc3c(cc21)C(O)Oc1c-3ccc2ccccc12 (centres undefined)	.	0	.	-0.2	-0.2	7	13	2.6	-23	i
COc1ccc(N(CC(=O)NC2CCCC2)C(=O)Cn2nnc(-c3ccc(F)cc3)n2)cc1	0.65	0	3.2	0.1	-1.0	-2	-5	3.3	-3	i
CC(C)C(NC(=O)c1c(F)cccc1F)C(=O)N1CCN(S(=O)(=O)c2ccc(F)cc2)CC1 (centres undefined)	.	-5	.	0.1	0.8	6	8	2.0	.	i
N/C(=N\NC(=O)c1sccc1OCc1ccc(Cl)cc1Cl)c1ccccn1	.	78*	7.4	-0.6	2.8	-16	-5	-3.2	46	i
C[C@H]1C=C(C(=O)O)O[C@@H](OCc2ccc(CO)cc2)C1	.	-1	5.6	-0.4	1.8	16	16	0.2	-15	i
COc1ccc(/C=C/C(=O)OCC(=O)N2CCCCCC2)cc1OC	0.67	-7	-31	0.0	3.9	-9	-5	5.1	.	i
O=C(Nc1ccc2c(c1)C(=O)N(c1ccccc1)C2=O)c1cccs1	0.64	-1	-57	-1.1	0.6	-4	-4	-0.8	-6	i
COC(=O)c1ccccc1OC(=O)c1ccc(Br)o1	0.71	-8	4.2	0.5	.	.	.	.	-14	.
CN(CC(=O)Nc1ccccc1Cl)C(=O)Cn1cnc2ccccc2c1=O	0.65	.	1.2	.	-3.9	7	8	0.1	.	i
COC(=O)c1cc(S(=O)(=O)NCC2CCN(Cc3ccc(Cl)cc3)CC2)c[nH]1	0.69	.	1.3	-0.5	4.2	9	4	-1.4	12	i
CC(NC(=O)CSc1nc(=O)cc(N)n1-c1ccccc1)c1ccccc1 (centres undefined)	0.72	-2	2.2	0.7	.	.	.	.	1	.
Cc1cccn2c(=O)c(/C=C(\C#N)C(=O)NC3CCS(=O)(=O)C3)c(Oc3ccccc3Cl)nc12 (centres undefined)	0.64	2	-76	-0.6	8.9	-1	0	0.4	-12	i
O=C(O)[C@H]1CCCC[C@H]1C(=O)Nc1ccc(S(=O)(=O)N2CCOCC2)cc1	0.69	-5	5.1	0.3	-0.1	11	9	-2.9	-22	i
Cc1cc(CNC(=O)Cc2c(F)cccc2Cl)nn1C	0.66	-3	3.5	0.2	-29	.	.	.	-12	i
O=C(COC(=O)c1ccc(F)cc1F)NC1CC1	0.7	-1	0.7	0.5	-5.5	-2	4	0.1	0	i
COc1ccc(-c2nc3cc([N+](=O)[O-])ccc3o2)cc1OC	0.72	2	-0.5	-3.9	-0.1	-4	6	0.1	?	i
CCN(CC)c1ccc(/C=N/N2CCN(Cc3cccc4ccccc34)CC2)c(O)c1	.	3	.	-0.5	8.6	11	17	0.6	26	i
Cc1ccc(Nc2nc(N)nc(CSc3nnnn3-c3ccccc3)n2)cc1	0.66	-3	3.6	0.2	.	.	.	.	-9	.
Cc1ccc(C(=O)OCC(=O)NCc2cccs2)c(C)c1	0.7	-4	2.8	0.0	-3.4	17	10	-0.1	9	i
COCCN(C(=O)CSCc1ccc(C)cc1)c1c(N)n(CC(C)C)c(=O)[nH]c1=O	0.67	-4	2.3	1.4	-6.7	4	13	-0.4	.	i
Cc1ccsc1C(=O)OCC(=O)Nc1ccc(Cl)cc1C(F)(F)F	0.69	2	1.3	0.2	-0.9	11	4	1.1	-2	i
Cc1nnc(SCC(=O)NC(=O)NC(C)(C)C)s1	0.7	-4	2.6	-0.5	-1.4	20	19	2.0	-9	i
O=C(O)c1cc(S(=O)(=O)N2CCOCC2)c[nH]1	0.66	-2	-2.2	0.6	0.3	0	21	-0.5	.	i
Cn1c(SCC(=O)Nc2ccc3nc(SCC(=O)N4CCCC4)sc3c2)nnc1-c1ccccc1	0.67	2	4.9	-0.4	.	.	.	.	12	.
COc1ccc(CN2C(=O)C(C)Nc3ncnc(N4CCOCC4)c32)cc1 (centres undefined)	0.69	8	-1.0	0.9	3.1	11	6	1.5	.	i
CCn1ccnc1CN(C)C(=O)c1cc(COc2ccc(-n3cncn3)cc2)on1	0.69	-3	3.5	-1.1	0.5	2	6	-2.8	6	i
CN(C)S(=O)(=O)Nc1ccccc1C(N)=O	0.65	-4	-39	2.5	.	.	.	.	-4	.
COc1ccccc1CCNC(=O)c1ccc(OC)c(OC2CCN(C(C)C)CC2)c1	0.71	-5	-0.8	0.8	-2.2	7	10	-1.3	26	i
CN(C)C(=O)[C@@H]1C[C@H]1[C@@H](NC(=O)OCc1ccccc1)c1ccccc1	.	1	0.8	3.5	1.6	-13	-8	1.3	2	i
CC(Sc1ncnc2sc(-c3ccccc3)cc12)C(=O)N1CCNC1=O (centres undefined)	0.68	-8	2.9	-1.1	-1.0	9	12	3.9	.	i
COC(=O)N/N=C/c1cc(Cl)c(OCc2ccccc2F)c(OC)c1	.	0	.	-0.4	-0.2	-16*	4.7*	-1.2*	-6	i
Cc1ccc(Cl)cc1NC(=O)CCC(=O)Nc1cc(Cl)ccc1C	0.72	-1	-0.6	0.2	.	.	.	.	-11	.
O=c1c2ccccc2nnn1CSc1ccccc1	0.67	1	0.9	-9.7	.	.	.	.	-17	.
O=C(CCCN1C(=O)c2ccccc2C1=O)NCC1CCCO1 (centres undefined)	0.7	3	-1.0	-0.6	.	.	.	.	-3	.
CCOC(=O)C1(CC2CCCCO2)CCN(C(=O)Nc2cccc(SC)c2)CC1 (centres undefined)	0.65	2	0.6	-0.2	-11	-39	-69	-9.9	-14	i
C=CCSC1=C(C#N)C(c2ccccc2Cl)CC(=O)N1 (centres undefined)	0.68	3	2.1	-0.5	.	.	.	.	-5	.
O=C(NC(Cc1ccccc1)C(=O)N1CCN(S(=O)(=O)c2ccccc2F)CC1)c1ccccc1 (centres undefined)	.	-1	.	-0.5	-2.5	-1	-3	-0.1	.	i
COc1cc(OC)cc(-c2c(C#Cc3ccsc3)c3cc(-c4cccc5[nH]cc(C=O)c45)ccc3n2C)c1	0.65	1	-18	1.2	-0.9	10	7	2.0	.	i
CC(C)(C)NC(=O)CC(CC(=O)O)c1ccccc1 (centres undefined)	0.71	0	-0.9	0.2	-2.4	14	11	0.9	-7	i
Cn1c(=O)c2c(nc(Sc3n[nH]c(N)n3)n2Cc2ccccc2Cl)n(C)c1=O	0.7	-2	4.9	-1.6	.	.	.	.	-10	.
CN1CCN(C(=S)Nc2ccc(Cl)cc2)CC1	0.68	-5	1.7	0.4	-0.3	.	.	.	-26	i

A second format for 2 compounds above:
| SMILES | E coli growth | Beta apoptosis | UCH37 DUB inh | A1 inh | AF4-AF9 inh | rRNA inh HTS | rRNA inh HTS OD600 | rRNA inh HTS RFP | T cruzi inh | FGF22 binding |
| --- | --- | --- | --- | --- | --- | --- | --- | --- | --- | --- |
| CCOC(=O)C1(CC2CCCCO2)CCN(C(=O)Nc2cccc(SC)c2)CC1 (centres undefined) | 0.65 | 2 | 0.6 | -0.2 | -11 | -39 | -69 | -9.9 | -14 | i |
| C=CCSC1=C(C#N)C(c2ccccc2Cl)CC(=O)N1 (centres undefined) | 0.68 | 3 | 2.1 | -0.5 | . | . | . | . | -5 | . |

New compounds follow
SMILES	E coli growth	Beta apoptosis	UCH37 DUB inh	A1 inh	AF4-AF9 inh	rRNA inh HTS	rRNA inh HTS OD600	rRNA inh HTS RFP	T cruzi inh	FGF22 binding
CCCc1nnc(NC(=O)c2cc3ccccc3o2)s1	0.7	-5	0.5	-2.1	0.2	5	5	0.5	1	i
COc1ccc(N(Cc2cc3ccc(C)cc3[nH]c2=O)C(=O)c2ccco2)cc1	0.71	0	2.6	0.4	.	.	.	.	12	.
N/C(=N\OC(=O)Cc1ccccc1)c1cccc(Br)c1	0.73	3	-1.7	-0.6	-0.8	7	1	2.8	11	i
O=C(Cc1ccccc1)Nc1ccccc1C(=O)Nc1ccc(C(=O)O)cc1	0.7	-1	0.1	0.2	-1.4	8	6	-1.4	-5	i
CCOC(=O)Cn1c(=O)oc2cc(S(=O)(=O)Nc3c(C)cc(C)cc3C)ccc21	0.72	-6	3.8	-0.3	-4.6	0	-5	-2.1	.	i

A portion of the library, so the mix of outcomes need not match the whole.
